CtBP-E1A blk = blocks the CtBP interaction with E1A. AlphaScreen GST-E1A/His-CtBP binding, 1536-well; active compounds read low; control for the full effect not named in the record. activity change, % (test concentration not listed). actives 0.49% (n = 340,000); in the data active means activity change below about -65%; inconclusive means about -30% to -65%; inactive means above about -30%; further: on the % scale 0 is the no-effect control and ±100 the full control effect
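Protein mix (5X: 125 nM each GST-E1A, His-CtBP) was incubated with pinned compound 2 h at 37 deg C in dark, in 50 mM Tris pH 8.0 buffer with 300 mM NaCl. Glutathione donor and nickel acceptor beads followed; AlphaScreen signal read after 1 h.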
PINK1 expr mod = modulators of PINK1 expression; PINK1 immunofluorescence, high-content cytometry, 24 h; AID 624263; actives 0.2% (n = 410,000); Potency, µM (series often up to 76.6 µM), inactives show at the top dose activation (PINK1 increase), most hits filed as activators; active = well fitted activation curve with a large enough effect; inconclusive = small, poorly fitted or top-dose-only effect; inactive = flat fitted curve, though single readings scatter; cell line not stated here;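 further: potency means the concentration at half of the fitted maximal effect; % of control where 0% means no effect; nearly all actives have a fitted effect of over 65% in size; a mitochondrial uncoupler was the plate control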
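Fluorescence from anti-PINK1 antibody, together with nuclear and cell stains, was scanned on a laser-scanning cytometer. Before staining, stable-line cells were incubated 24 hours with compounds at 5 concentrations; primary antibody 12 h at 10 degrees C.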
D2 PAM = human D2 receptor positive allosteric modulation. P14416. DiscoveRx D2 beta-arrestin cells, luminescence, 90 min; 100% = 57 uM dopamine signal. potentiation, % (test concentration not listed). actives 0.23% (n = 360,000); active = potentiation of 50% or more; inconclusive = 30% to 50%; inactive = 30% or less;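 further: compound concentration not given in the record; tested on top of an EC20 dose of dopamine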
Target sequence (P14416 whole entry, looked up): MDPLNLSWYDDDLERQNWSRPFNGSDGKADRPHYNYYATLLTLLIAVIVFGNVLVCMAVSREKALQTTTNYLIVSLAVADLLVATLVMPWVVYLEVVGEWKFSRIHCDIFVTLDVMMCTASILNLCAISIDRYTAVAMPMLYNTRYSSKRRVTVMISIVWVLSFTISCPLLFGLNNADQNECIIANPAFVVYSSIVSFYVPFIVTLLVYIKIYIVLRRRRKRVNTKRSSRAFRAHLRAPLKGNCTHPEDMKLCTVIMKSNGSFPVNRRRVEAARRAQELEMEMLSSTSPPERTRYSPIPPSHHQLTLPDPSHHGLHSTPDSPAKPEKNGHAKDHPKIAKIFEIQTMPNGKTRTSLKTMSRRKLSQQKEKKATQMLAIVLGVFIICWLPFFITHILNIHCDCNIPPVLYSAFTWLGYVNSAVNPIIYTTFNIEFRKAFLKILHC
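PathHunter beta-arrestin assay in DiscoveRx D2 cells. Compounds were added with an EC20 of dopamine (50 nM final) for 90 min at 37 deg C. Luminescence was read 1 h after detection reagent, with 57 uM dopamine as the EC100 control.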
Sfp inh = blocks B. subtilis Sfp PPTase activity; actives 3.5% (n = 310,000); Potency, µM, for the others: max response, negative = inhibition, hits mostly inhibitors; Q9F4F7; Biochemical Sfp PPTase activity, qHTS; active means well fitted inhibition curve with a large enough effect; inconclusive means small, poorly fitted or top-dose-only effect, or another doubt; inactive means no such curve, though single readings can be large or run the other way;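 further: the enzyme is Sfp with the accession as filed and its product quenches rhodamine fluorescence; potency means the concentration at half of the fitted maximal effect; 0% = enzyme reaction without inhibitor and -100% = no enzyme wells; top concentration of the series not given in the record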
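Compounds were incubated with enzyme (final 15 nM) for 15 min at room temperature before substrate addition started the reaction. Fluorescence at 525 nm excitation, 598 nm emission was recorded immediately and after 30 minutes.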
D2 ag = human D2 receptor agonism in beta-arrestin assay. P14416. actives 0.084% (n = 360,000). DiscoveRx PathHunter D2 beta-arrestin, luminescence, 90 min; 100% = 57 uM dopamine signal. activation, % (test concentration not listed); in the data active = activation above about 40%; inconclusive = about 15% to 40%; inactive = below about 15%; further: compound concentration not given in the record; the text of the record calls up to 30% inactive
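DiscoveRx PathHunter D2 beta-arrestin cells (2,100/well) attached overnight, then compound-stimulated 90 min at 37 C in HBSS/10 mM HEPES/0.1% Tween-20 buffer; beta-galactosidase complementation read by luminescence after 1 h at ambient temperature. Dopamine 57 uM final (EC100) as control.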
Six1-Eya2 blk = Six1/Eya2 interaction inhibition; Q15475+O00167; AlphaScreen GST-Six1/His-Eya2 binding, biochemical; active compounds read low; control for the full effect not named in the record; activity change, % (no concentration beside the values); actives 0.56% (n = 360,000); AID 651725; in the data active = activity change below about -65%; inconclusive = about -30% to -65%; inactive = above about -30%; further: on the % scale 0 is the no-effect control and ±100 the full control effect
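Six1/Eya2 binding was read as AlphaScreen signal after compounds were pinned into GST-Six1 plus His-tagged Eya2 (5X stock 250/500 nM) in pH 8.0 Tris/NaCl/TCEP buffer, beads added, then incubated 1 h, 37 C, dark.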
TRPV1 PAM = potentiators of human vanilloid receptor 1 (TRPV1); Q8NER1; TRPV1-expressing cells, Fluo-8 calcium influx, capsaicin EC20 potentiation; host cell line not named in the record; control for the full effect not named in the record; potentiation, % at 8.33 µM; actives 0.02% (n = 320,000); AID 540277; active means potentiation above 80%; inconclusive means 30% to 80%; inactive means below 30%; further: 0% is about no effect
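TRPV1-expressing cells were cultured overnight at 35.5C and loaded with Fluo-8 calcium dye for 40 to 90 min at room temperature. After a 10 s baseline, compound was added and calcium influx was read kinetically for 3 min (ex 480/em 520 nm).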
* hit, by the source's call; ? = inconclusive; / = no result given; & = joins results of further samples; [ ] = dose if it differs, or a comment.

Field names: A = CtBP-E1A blk; B = PINK1 expr mod; C = D2 PAM; D = Sfp inh; E = D2 ag; F = Six1-Eya2 blk; G = TRPV1 PAM
Cc1n[nH]c(C)c1S(=O)(=O)Nc1ccc2c(c1)OCCO2
  A = 2; B = 1.4%; C = -13; D = -1%; E = 2.5; F = -1; G = -2
CCC(Oc1ccccc1)C(=O)Nc1ccccc1C(=O)N1CCOCC1 (centres undefined)
  A = 9; B = -0.9%; C = -2; D = 10%; E = -3.0; F = 0; G = -4
COC(=O)[C@@]1(Cc2ccc(F)cc2)[C@H]2c3cc(C(=O)N(C)C)n(CCO)c3C[C@H]2CN1C(=O)c1ccccc1
  A = 3; B = -0.5%; C = /; D = 15%; E = /; F = -5; G = /
CCOCCCNC(=O)CC1Oc2ccc(C)cc2NC1=O (centres undefined)
  A = 5; B = 0.6%; C = -2; D = 3%; E = -6.1; F = -12; G = -5
Cc1ccnc(NC(=O)CCCOc2cc(=O)n(C)c3ccccc23)c1
  A = 1&-1; B = 0.3%&-2.6%; C = -4&-2; D = 1%; E = -1.9&0.6; F = 6&-1; G = -14
Cc1ccc(-n2nc(C)c3c(C)c(CCC(=O)NCCCOC(C)C)c(C)nc32)cc1
  A = -11; B = 1.0%; C = -6; D = -6%; E = -2.0; F = -13; G = -15
Cc1cccc(OCC(=O)O/N=C(\N)c2ccc(Cl)cc2)c1
  A = 2; B = 9.7%; C = -3; D = -14%; E = -5.7; F = 24; G = ?
CN1/C(=C\C(=O)COC(=O)c2ccc(O)c(O)c2)C(C)(C)c2ccccc21
  A = 20; B = ?; C = -2; D = ?; E = 3.8; F = 4; G = -5
CC1CCN(S(=O)(=O)c2ccc(C(=O)Nc3ccccn3)cc2)CC1
  A = 1; B = 8.0%; C = -4; D = /; E = 3.3; F = 2; G = 0
S=C(Nc1cccc(Cl)c1)N1CCN(c2ccccn2)CC1
  A = -2; B = 6.2%; C = -1; D = 6%; E = -5.3; F = -3; G = 13
COc1ccc(CC(=O)N(CCC2=CCCCC2)c2c(N)n(Cc3ccccc3)c(=O)[nH]c2=O)cc1OC
  A = 2; B = -3.5%; C = -30; D = /; E = -3.7; F = -3; G = 23
C=CCN(C(=O)CNS(=O)(=O)c1ccccc1)C(C(=O)NCCOC)c1cccnc1 (centres undefined)
  A = 20; B = -0.5%; C = 4; D = 14%; E = 1.5; F = 0; G = 3
CN(CCCC1CCCC1)C(=O)CCc1nnc(-c2ccccc2)o1
  A = 11; B = 0.1%; C = -7; D = -27%; E = -2.5; F = 1; G = -11
CSc1nnc(C)c(=O)[nH]1
  A = 7; B = 10%[38.3 µM]; C = -9; D = -14%; E = -2.1; F = 1; G = 6
COc1ccc(OCC(=O)NC(=S)NNC(=O)COc2ccc(Br)cc2Cl)cc1
  A = 0; B = -1.1%; C = -13; D = 22µM*; E = -2.4; F = -3; G = 11
Cc1ccc(NC(=O)COC(=O)CC2SC(N3CCCC3)=NC2=O)cc1 (centres undefined)
  A = 2; B = 1.6%; C = -2; D = /; E = -1.7; F = 3; G = -5
COCCSc1ccccc1C(=O)Nc1ccc(Br)cc1
  A = 8; B = 3.2%; C = -7; D = -19%; E = -3.2; F = 3; G = -45
COc1ccc(S(=O)(=O)NC2CCSc3ccccc32)cc1NC(C)=O (centres undefined)
  A = -2; B = 0.7%; C = -4; D = 10%; E = -1.2; F = -2; G = 2
Cc1ccc(SCC(=O)NCc2cccnc2)cc1
  A = -6; B = -2.2%; C = 24; D = 8%; E = -0.2; F = 14; G = 4
COc1ccc(CC(=O)NCc2n[nH]c(=S)n2-c2cccc(C)c2)cc1
  A = 8; B = -0.1%; C = -6; D = 12%; E = 1.9; F = 5; G = 2
CC(=O)Nc1cccc(-c2csc(Nc3cc(C)ccn3)n2)c1
  A = 6; B = /; C = 10; D = -13%; E = 3.5; F = -5; G = -2
COc1ccc(/C=C2\SC(=Nc3ccccc3OC)NC2=O)cc1
  A = 8; B = 2.1%; C = 1; D = -23%; E = -5.0; F = -12; G = -5
CCO[C@H]1OC(C(=O)N2CCCCCCC2)=C[C@@H](c2ccccc2)[C@@H]1CCCO
  A = 9; B = -1.8%; C = -6; D = 8%; E = -1.3; F = 7; G = -12
Cc1ccc2[nH]c(C(=O)N3CCN(C=O)CC3)cc2c1
  A = 11; B = 3.4%; C = -3; D = -16%; E = -5.5; F = 0; G = -1
COc1ccc(NC(=O)C2CCN(c3ncnc4c3nc3n4CCCCC3)CC2)c(OC)c1
  A = -15; B = 1.2%; C = -11; D = 4%; E = -1.5; F = 3; G = -7

Among those listed so far, these have a halogen:
Field names: A = CtBP-E1A blk; B = PINK1 expr mod; C = D2 PAM; D = Sfp inh; E = D2 ag; F = Six1-Eya2 blk; G = TRPV1 PAM
COC(=O)[C@@]1(Cc2ccc(F)cc2)[C@H]2c3cc(C(=O)N(C)C)n(CCO)c3C[C@H]2CN1C(=O)c1ccccc1
  A = 3; B = -0.5%; C = /; D = 15%; E = /; F = -5; G = /
Cc1cccc(OCC(=O)O/N=C(\N)c2ccc(Cl)cc2)c1
  A = 2; B = 9.7%; C = -3; D = -14%; E = -5.7; F = 24; G = ?
S=C(Nc1cccc(Cl)c1)N1CCN(c2ccccn2)CC1
  A = -2; B = 6.2%; C = -1; D = 6%; E = -5.3; F = -3; G = 13
COc1ccc(OCC(=O)NC(=S)NNC(=O)COc2ccc(Br)cc2Cl)cc1
  A = 0; B = -1.1%; C = -13; D = 22µM*; E = -2.4; F = -3; G = 11
COCCSc1ccccc1C(=O)Nc1ccc(Br)cc1
  A = 8; B = 3.2%; C = -7; D = -19%; E = -3.2; F = 3; G = -45

The listing continues:
Field names: A = CtBP-E1A blk; B = PINK1 expr mod; C = D2 PAM; D = Sfp inh; E = D2 ag; F = Six1-Eya2 blk; G = TRPV1 PAM
Cc1ccc(NC2CCCN(C(=O)c3cn4cccc(C)c4n3)C2)cc1C (centres undefined)
  A = -4; B = -1.9%; C = 16; D = 15%; E = -1.8; F = -6; G = -15
CCCSc1nnc(NC(=O)c2nc(SC)ncc2Cl)s1
  A = 10; B = -5.1%[38.3 µM]; C = 1; D = 0%; E = -1.9; F = 6; G = 9
COc1cccc(-n2nnc3c(=O)n(Cc4ccc(Br)cc4)cnc32)c1
  A = -9; B = -0.1%[38.3 µM]; C = -1; D = 35µM*; E = 2.2; F = -1; G = 27
O=C(c1ccc2c(c1)OCO2)C1CCCN(C(=O)NCc2ccccc2)C1 (centres undefined)
  A = 5; B = 0.2%; C = -8; D = 9%; E = -1.6; F = 2; G = -8
C[N+]1(CCCOC(=O)C2(c3ccccc3)CCCC2)CCOCC1
  A = -12; B = 0.7%; C = 0; D = 2%; E = -8.1; F = -1; G = 0
Cc1ccc(NC(=O)C(C)Sc2nnc(C)n2CC2CCCO2)cc1 (centres undefined)
  A = -3; B = -0.7%; C = -6; D = 22%; E = -2.9; F = 11; G = 3
O=C(Cn1c(=O)n(CCCC(=O)NC2CCCC2)c(=O)c2ccccc21)NCCC1=CCCCC1
  A = 2; B = 7.7%; C = 8; D = 19%; E = 1.5; F = 13; G = ?
Cc1ccc(OCCCCCCN2CCNCC2)c(Br)c1
  A = -19; B = -2.3%; C = -30; D = /; E = 0.9; F = -5; G = /
Oc1cc(-n2cccn2)c(O)cc1-n1cccn1
  A = /; B = 0.9%; C = -5; D = 5µM*; E = ?; F = -14; G = 14
CCOC(=O)c1c(C)[nH]c(C(=O)COC(=O)COc2ccc(OC)cc2)c1C
  A = 5; B = 1.2%; C = 9; D = 22%; E = 0.9; F = 4; G = 16
COc1ccc(S(=O)(=O)N2CCC(C(=O)NCCc3ccccc3)CC2)cc1
  A = 12; B = 1.4%; C = -10; D = 15%; E = -8.5; F = 2; G = -12
COc1ccc(C2CC=C(C(C)=O)CN2S(=O)(=O)c2ccc(Cl)cc2)cc1 (centres undefined)
  A = 2&1; B = 0.6%&7.8%; C = -4&-12; D = /; E = -7.3&-6.7; F = -3&-1; G = /
Cc1ccc2oc3ccccc3c(=O)c2c1
  A = 16; B = 2.1%; C = 14; D = /; E = 7.5; F = 17; G = /
Cc1ccccc1CC1CCN(CCCNC(=O)Nc2ccccc2)CC1
  A = /; B = -1.8%; C = -55; D = 3%; E = 0.1; F = -3; G = -1
O=C(c1ccccc1)N(Cc1cccc(Br)c1)C1CCS(=O)(=O)C1 (centres undefined)
  A = /; B = -0.4%; C = -6; D = 20%; E = 2.4; F = 9; G = 7
O=C(CSc1ccc(-c2ccco2)nn1)Nc1ccc(F)cc1
  A = 0; B = 2.6%; C = 4; D = 28µM*; E = 6.3; F = -11; G = 0
Cn1cccc1-c1nc2ccc([N+](=O)[O-])cc2[nH]1
  A = -25; B = 1.0%; C = 2; D = 79µM*; E = -4.0; F = 3; G = 5
COCCOC(=O)C1=C(C)NC(C)=C(C(=O)OC(C)C)C1c1cccc([N+](=O)[O-])c1 (centres undefined)
  A = -4; B = 0.1%; C = -7; D = 1%&13%&7%&-6%&-19%; E = -2.3; F = -8; G = -10&-4
COc1ccc(N(C(=O)c2snc(C(N)=O)c2N)C(C(=O)NC2CCCC2)c2cccs2)cc1OC (centres undefined)
  A = -3; B = 6.0%; C = -2; D = 0%; E = 0.8; F = 5; G = 22
Cc1cc(NS(=O)(=O)c2cccs2)no1
  A = 0; B = -2.2%; C = 2; D = 10%; E = -3.0; F = 0; G = 2
COc1ccc(/C=C2\SC(=S)N(N3C(=O)CCC3=O)C2=O)cc1O
  A = -6; B = -0.4%; C = -8; D = -44%; E = -3.5; F = 1; G = -11
COC(=O)c1cc2oc3ccccc3c2n1Cc1ccccn1
  A = -6; B = 0.3%; C = -4; D = 40µM*; E = -1.4; F = -16; G = 8
Cc1cccc(NC(=S)NC(=O)CCc2ccccc2)c1C
  A = 10; B = /; C = 12; D = ?; E = -0.8; F = -2; G = 29
CC1CCCCC12NC(=O)N(CC(=O)Nc1cccc(S(=O)(=O)N3CCCCC3)c1)C2=O (centres undefined)
  A = -11; B = 4.1%; C = 0; D = /; E = 13; F = -3; G = -1
CCOC(=O)Nc1ccc(NC(=O)OCC)cc1
  A = 9; B = 5.3%[38.3 µM]; C = -12; D = 0%; E = -1.9; F = 0; G = -26
Brc1csc(C=Nc2ccc3c(c2)OCCOCCOCCOCCO3)c1
  A = 14; B = 7.1%; C = -3; D = 2%; E = 2.7; F = 3; G = -2
CCn1c(SCC(=O)N(C)c2ccccc2)nc2c([nH]c3ccccc32)c1=O
  A = 0; B = 2.7%; C = -27; D = 8%; E = -3.9; F = 3; G = 7
O=C(NCCCNc1ccc(C(F)(F)F)cc1[N+](=O)[O-])c1ccc(Cl)cc1
  A = -15; B = 9.8%[38.3 µM]; C = -15; D = 11%; E = -2.3; F = -11; G = 3

Screening results from PubChem BioAssay.
